ClpP mod: qHTS Assay for Activators of ClpP; purified B. subtilis ClpP, FRET peptide cleavage, 20 min; Potency, µM (top dose mostly 57.5 µM), inactives show top-dose activity change, negative = active; actives 1.9% (n = 340,000); AID 651965, 2013; active = well fitted falling curve with a large enough effect; inconclusive = small, poorly fitted or top-dose-only effect; inactive = no such curve, though single readings can be large or run the other way; further: the source files actives as falling curves though it sought activators and does not explain the sign; nearly all actives have a fitted effect of over 65% in size; many hits overshoot -100%
Target sequence (P80244 whole entry, looked up): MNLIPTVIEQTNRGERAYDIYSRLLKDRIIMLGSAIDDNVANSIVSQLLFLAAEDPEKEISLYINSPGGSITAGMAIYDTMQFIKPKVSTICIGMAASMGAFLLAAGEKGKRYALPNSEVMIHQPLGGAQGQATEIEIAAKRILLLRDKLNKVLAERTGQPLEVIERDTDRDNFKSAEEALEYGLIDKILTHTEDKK
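Buffer: 100 mM Tris/HCl pH8, 100 mM KCl, 0.05% low protease BSA, 2.5% glycerol, 0.01% Tween-20. ClpP 10 microg/mL final; 20 min RT; delta FRET normalized to ADEP and DMSO controls.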
An asterisk follows results filed as active; ? = inconclusive. Potency means the concentration at half of the fitted maximal effect. A portion of the library; the hit share may differ from the screen's.

Molecule	ClpP mod
O=C(NCC[C@@H]1CC[C@@H](NS(=O)(=O)c2ccccc2)[C@@H](CO)O1)c1cc(Cl)cc(Cl)c1	-2.6%
COC(=O)[C@]12CCCCC=C1N(Cc1ccc3c(c1)OCO3)C(=O)[C@H](CC(=O)N1CCN(C(=O)C3CC3)CC1)C2	2.3%
COc1ccc(OC)c(CN2C(=O)CN(S(C)(=O)=O)CC2(C)C(=O)Nc2c(C)cccc2C)c1 (stereo not given)	-0.8%
CO[C@H]1CN(C)C(=O)c2cc(NC(=O)C3CCCC3)ccc2OC[C@@H](C)NC[C@H]1C	-0.5%
COc1ccc(CN2C(=O)CN(S(C)(=O)=O)CC2(C)C(=O)NC(C)C)cc1 (stereo not given)	-1.7%
Oc1cccc(CN2CCN(c3ncc(Cc4ccccc4)cn3)CC2)c1	-7.7%
COc1ccc2c3c(n(C(=O)OC(C)(C)C)c2c1)C1CC=C(COC(C)=O)CN1CC3 (stereo not given)	?
COC(=O)C[C@@H]1C=C[C@H](NC(=O)Nc2cc(F)ccc2F)[C@@H](CO)O1	-5.0%
CSCCC(c1nc2ccccc2[nH]1)n1c(-c2cc(C(F)(F)F)cc(C(F)(F)F)c2)nc2ccccc21 (stereo not given)	-19%
COC(=O)C(C(=O)OC)c1ccccc1NC(=O)OCc1ccccc1	-0.8%
COc1ccccc1-c1nc2ccccc2n(CC(C)C)c1=O	-2.4%
O=C(C(=O)N1CCN(C(=O)c2ccco2)CC1)c1ccccc1	-0.5%
N#Cc1ccc(C(C(=O)NC2CCCCC2)n2c(=O)c(-c3ccccc3)nc3ccccc32)cc1 (stereo not given)	?
CC1(c2nnnn2C2CCCCC2)CCC(=O)N1Cc1ccc2c(c1)OCO2 (stereo not given)	1.1%
O=C(Nc1ccc2ccccc2c1)C(C1CC1)n1c(=O)c(-c2cc3ccccc3[nH]2)nc2ccccc21 (stereo not given)	-8.0%
CCCCNC(=O)c1nc(C2CCN(S(=O)(=O)c3ccc(C(F)(F)F)cc3)CC2)oc1-c1ccccc1	-9.8%
CC(C)(C)NC(=O)C(c1ccc(C#N)cc1)n1c(=O)c(-c2ccco2)nc2ccccc21 (stereo not given)	4.1%
COc1ccc(C(C(=O)Nc2ccc3c(c2)OCCO3)n2c(=O)c(-c3cc4ccccc4[nH]3)nc3ccccc32)cc1 (stereo not given)	34%
O=C(C[C@@H]1CC[C@H](NC(=O)Nc2ccc(F)cc2)[C@@H](CO)O1)NCc1cccc(F)c1	-3.8%
O=C(NC1CCCC1)C(C1CC1)n1c(C2CCCC2)nc2ccccc21 (stereo not given)	1.5%

Additional entries.
Molecule	ClpP mod
O=C(NC1CCCC1)c1nc(-c2c(F)cccc2F)oc1-c1ccccc1	4.3%
COC(=O)[C@]12CCCCC=C1N(CCc1ccc(OC)c(OC)c1)C(=O)[C@H](CC(=O)N1CCOCC1)C2	3.7%
COC(=O)C1=CN(c2ccc(Oc3ccccc3)cc2)C(N)=C(C#N)C1c1ccc(-c2ccccc2)cc1 (stereo not given)	-13%
COC(=O)C1=CN(c2cccc(OCc3ccccc3)c2)C(N)=C(C#N)C1c1ccccc1 (stereo not given)	-12%
COc1ccc(C2=Nc3ccccc3N(C(=O)c3ccc(C(F)(F)F)cc3)C2C(=O)NCc2ccccc2)cc1 (stereo not given)	-11%
CCCCCCCCN1C(=O)[C@H](CC(=O)NCc2ccc(C)o2)C[C@@]2(C(=O)OCC)CCC=C12	1.1%
COC(=O)[C@]12CCCCC=C1N(CCc1ccc(OC)c(OC)c1)C(=O)[C@H](CC(=O)N1CCSCC1)C2	-1.8%
Cc1ccc(CN2C(=O)CSCC2(C)C(=O)NC(C)C)cc1 (stereo not given)	-0.5%
COC(=O)C[C@@H]1C=C[C@H](NC(=O)c2cnccn2)[C@@H](CO)O1	-0.4%
CCCNC(=O)N1C[C@H](O)COC[C@H]2O[C@@H](CC(=O)N[C@@H]3CCN(Cc4ccccc4)C3)CC[C@@H]21	-1.8%
CCCCNC(=O)C(NC(=O)c1ccc(C(F)(F)F)cc1)C(=O)c1ccccc1 (stereo not given)	1.7%
COc1ccc(C2=Nc3ccccc3N(C(=O)Cc3cc(OC)cc(OC)c3)C2C(=O)NC(C)(C)C)cc1 (stereo not given)	-16%
CCOC(=O)[C@]12CCCC=C1N(Cc1ccccc1)C(=O)[C@H](CC(=O)NCc1ccccc1)C2	2.0%
Cc1cccc(C)c1NC(=O)C1C(c2ccc3c(c2)OCO3)=Nc2ccccc2N1C(=O)c1cccc2ccccc12 (stereo not given)	-22%
CN1CCN(C(=O)C[C@H]2CC[C@H]3[C@@H](COC[C@@H](O)CN3C(=O)C3CCCC3)O2)CC1	0.0%
CC(C)(C)NC(=O)C(C1CC1)n1c(=O)c(-c2cc3ccccc3[nH]2)nc2ccccc21 (stereo not given)	1.6%
COC(=O)C[C@@H]1C=C[C@@H](NS(=O)(=O)c2ccccc2OC)[C@@H](CO)O1	-1.6%
CSCCC(C(=O)Nc1c(C)cccc1C)n1c(-c2ccc(C(F)(F)F)cc2)nc2ccccc21 (stereo not given)	-0.1%
COC(=O)[C@@]12C[C@@H](CC(=O)NCc3ccccc3)C(=O)N(Cc3ccc4c(c3)OCO4)C1=CCC(C)(C)C2	-1.0%
O=C(NCc1ccccc1)C(c1ccccc1F)n1c(=O)c(-c2cc3ccccc3[nH]2)nc2ccccc21 (stereo not given)	-2.8%

Other compounds.
Molecule	ClpP mod
CC1(C(=O)Nc2ccc3c(c2)OCCO3)CSCC(=O)N1CC(F)(F)F (stereo not given)	-7.6%
COC(=O)[C@@]12C[C@@H](CC(=O)NCC3CCCCC3)C(=O)N(CCc3ccc(OC)c(OC)c3)C1=CCC(C)(C)C2	-0.9%
COC(=O)C[C@@H]1CC[C@@H](NC(=O)Nc2cc(F)ccc2F)[C@@H](CO)O1	-0.6%
CC(C)[C@H](NC(=O)OC(C)(C)C)c1cc(C(=O)NC2CC2)c(N)s1	-5.1%
CSCCC(C(=O)NC1CCCC1)n1c(-c2ccncc2)nc2ccccc21 (stereo not given)	-9.5%
Cc1cc2c(cc1C)-n1nnnc1C(N1CCN(c3ccccc3F)CC1)C(=O)N2 (stereo not given)	-0.4%
CC1(C(=O)NCc2ccccc2)CN(S(C)(=O)=O)CC(=O)N1Cc1cccs1 (stereo not given)	0.3%
Cc1cccc(C)c1NC(=O)C1(C)CN(S(C)(=O)=O)CC(=O)N1Cc1ccc2c(c1)OCO2 (stereo not given)	-5.6%
COc1ccc(OC)c(CN2C(=O)CSCC2(C)C(=O)Nc2c(C)cccc2C)c1 (stereo not given)	1.9%
CC1(C(=O)NCc2ccccc2)CSCC(=O)N1Cc1cccs1 (stereo not given)	0.4%
CCC(C(=O)NCc1ccccc1)n1c(-c2cccs2)nc2ccccc21 (stereo not given)	4.7%
Cc1ccc(CN2C(=O)CSCC2(C)C(=O)NCc2ccccc2)cc1 (stereo not given)	1.0%
O=C(NCc1cccc(C(F)(F)F)c1)C1C(=O)Nc2ccccc2C(=O)N1C1CCCC1 (stereo not given)	-13%
Cc1cccc(C)c1N1C(=O)c2ccccc2NC(=O)C1C(=O)NCCOc1ccccc1 (stereo not given)	-3.2%
Cc1cccc(N2CCN(C3C(=O)Nc4ccccc4-n4nnnc43)CC2)c1C (stereo not given)	-3.4%
CCCCCCCCN1C(=O)[C@H](CC(=O)N2CCCC2)C[C@@]2(C(=O)OC)CC(C)(C)CC=C12	-0.2%
CCOc1cc(-c2ccccc2)nc2c1CN(S(=O)(=O)c1ccc(C)cc1)C(c1cccc(Cl)c1)C2 (stereo not given)	0.6%
COc1ccc(NC(=O)c2cc(-c3sc(NC(=O)c4ccccc4)nc3C)n(Cc3ccccc3)n2)cc1	4.6%
COc1cccc(C(=O)Nc2ccc3c(c2)OC[C@H](C)N(C(=O)C2CCCC2)C[C@@H](C)[C@@H](OC)CN(C)C3=O)c1	3.0%
CCOC(=O)[C@]12CCCC=C1N(CCc1ccc(OC)c(OC)c1)C(=O)[C@H](CC(=O)NCCCN1CCCC1=O)C2	-1.7%

Next section:
SMILES | ClpP mod
Nc1sc(-c2ccccc2)cc1C(=O)NCCN1CCOCC1 | -21%
CCCN1C[C@@H](C)[C@@H](OC)CN(C)C(=O)c2ccc(NC(=O)c3cccc(F)c3)cc2OC[C@H]1C | 0.1%
Cc1ccc(S(=O)(=O)N2[C@H](CC(=O)c3cccs3)OC[C@@H]2C(C)C)cc1 | -2.2%
CCNC(=O)C[C@@H]1CC[C@H]2[C@@H](COC[C@H](O)CN2C(=O)C2CC2)O1 | -0.2%
N#Cc1ccc(C2CC(OCCF)=CC(=O)O2)cc1 (stereo not given) | -2.5%
Cc1cccc(C)c1NC(=O)C1(C)CSCC(=O)N1CC(F)(F)F (stereo not given) | -0.1%
COCCNC(=O)c1cc(-c2ccccc2)sc1N | ?
O=C(NCc1ccccc1)C(CCc1ccccc1)n1c(=O)c(-c2ccccc2)nc2ccccc21 (stereo not given) | ?
O=C(NCc1cccs1)C1C(=O)Nc2ccccc2C(=O)N1Cc1ccccc1 (stereo not given) | -4.5%
CCOC(=O)[C@]12CCCC=C1N(Cc1ccccc1)C(=O)[C@H](CC(=O)NCCCCc1ccccc1)C2 | 1.8%

(list continues)
SMILES | ClpP mod
O=C1c2c(-c3ccc(Br)cc3)noc2CCN1Cc1cn(-c2ccccc2)nn1 | 1.4%
COC(=O)[C@@]12C[C@@H](CC(=O)N3CCCC3)C(=O)N(CCc3ccc(OC)c(OC)c3)C1=CCC(C)(C)C2 | 0.2%
CCc1ccc(N2C=C(C(=O)OC)C(c3cccc4ccccc34)C(C#N)=C2N)cc1 (stereo not given) | -13%
Cc1ccc(S(=O)(=O)N2C3CC(c4ccccc4)N(S(=O)(=O)c4ccccc4Cl)CC3C(=O)C[C@H]2c2ccccc2)cc1 (stereo not given in full) | 2.6%
C=CCC(NC(=O)N(C)C)(C(=O)OC)C(C)O (stereo not given) | 1.8%
CN(Cc1ccccc1)C(=O)C(=O)c1ccccc1 | -1.6%
COC(=O)C[C@@H]1C=C[C@@H](NS(=O)(=O)c2cccc(OC)c2)[C@@H](CO)O1 | 0.1%
COC(=O)[C@@]12C[C@@H](CC(=O)N3CCN(C(=O)C4CC4)CC3)C(=O)N(Cc3ccco3)C1=CCC(C)(C)C2 | -0.3%
COC(=O)[C@@]12C[C@@H](CC(=O)NCc3cccs3)C(=O)N(Cc3cccc4ccccc34)C1=CCC(C)(C)C2 | 0.4%
O=C(C(=O)N1CCN(c2ccccc2)CC1)c1ccccc1 | 0.3%

(further entries)
SMILES | ClpP mod
CCOC(=O)N1CCN(C(=O)C[C@@H]2C[C@@]3(C(=O)OC)CC(C)(C)CC=C3N(Cc3ccc4c(c3)OCO4)C2=O)CC1 | 1.7%
CCOC(=O)C1=CCN(S(=O)(=O)c2ccccc2C)C1c1cccc(Cl)c1 (stereo not given) | -1.1%
Cc1ccc(S(=O)(=O)N[C@H](CNCc2ccccc2)C(C)C)cc1 | 1.3%
CO[C@H]1CN(C)C(=O)c2ccc(NS(=O)(=O)c3ccccc3F)cc2OC[C@H](C)NC[C@@H]1C | -0.6%
CO[C@@H]1CN(C)C(=O)c2ccc(NC(C)=O)cc2OC[C@@H](C)N(C(=O)NC2CCCCC2)C[C@H]1C | -1.1%
COC(=O)[C@@]12C[C@@H](CC(=O)NCc3ccc(OC)c(OC)c3)C(=O)N(CCc3ccc(OC)c(OC)c3)C1=CCC(C)(C)C2 | -6.7%
Cc1cc(C)c2cc(C#N)c(NCCNC(=O)c3ccncc3)nc2c1 | -24%
CC(C)(C)NC(=O)C(c1ccncc1)n1c(=O)c(-c2cc3ccccc3[nH]2)nc2ccccc21 (stereo not given) | ?
CC1(C(=O)NCc2ccccc2)CSCC(=O)N1CCCN1CCOCC1 (stereo not given) | 1.2%
COC(=O)[C@@]12C[C@@H](CC(=O)NCCC(C)C)C(=O)N(CCc3ccc(OC)c(OC)c3)C1=CCC(C)(C)C2 | 0.5%

In another format: two of the compounds above
> COC(=O)[C@@]12C[C@@H](CC(=O)NCCC(C)C)C(=O)N(CCc3ccc(OC)c(OC)c3)C1=CCC(C)(C)C2
  ClpP mod = 0.5%
> COC(=O)[C@@]12C[C@@H](CC(=O)NCc3ccc(OC)c(OC)c3)C(=O)N(CCc3ccc(OC)c(OC)c3)C1=CCC(C)(C)C2
  ClpP mod = -6.7%

Other entries
SMILES | ClpP mod
CO[C@@H]1CN(C)C(=O)c2cc(NC(=O)Nc3cc(F)ccc3F)ccc2OC[C@H](C)NC[C@@H]1C | 0.7%
Cn1cnc(CCNC(=O)C[C@H]2CC[C@@H]3[C@H](COC[C@H](O)CN3C(=O)C3CCCC3)O2)c1 | -1.1%
C=CCOC(=O)Nc1nc(CCNC(=O)OC(C)(C)C)c(C(=O)OC)s1 | -3.2%
O=C(NC1CCCCC1)C(c1ccnc2ccccc12)n1c(=O)c(-c2cc3ccccc3[nH]2)nc2ccccc21 (stereo not given) | -9.5%
CC1(c2nnnn2C2CCCC2)CCC(=O)N1c1ccc2c(c1)OCCO2 (stereo not given) | -2.6%
CCOC(=O)[C@]12CCCC=C1N(CCc1ccc(OC)c(OC)c1)C(=O)[C@H](CC(=O)N1CCSCC1)C2 | -0.3%

Compounds listed so far that contain a furan ring, fused or not:
SMILES | ClpP mod
O=C(C(=O)N1CCN(C(=O)c2ccco2)CC1)c1ccccc1 | -0.5%
CC(C)(C)NC(=O)C(c1ccc(C#N)cc1)n1c(=O)c(-c2ccco2)nc2ccccc21 (stereo not given) | 4.1%
CCCCCCCCN1C(=O)[C@H](CC(=O)NCc2ccc(C)o2)C[C@@]2(C(=O)OCC)CCC=C12 | 1.1%
COC(=O)[C@@]12C[C@@H](CC(=O)N3CCN(C(=O)C4CC4)CC3)C(=O)N(Cc3ccco3)C1=CCC(C)(C)C2 | -0.3%
